Bioassay records as filed in PubChem BioAssay.
AF4-AF9 inh = inhibitors of human MLL-AF4/AF9 interaction | P42568 | AlphaScreen, biotin-AF4 peptide binding to FLAG-AF9 | inhibition, % at 10 µM | 350,000 compounds, 0.47% hits | AID 651704;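 active = every replicate reaching a set inhibition limit, whatever the replicate mean, cut at about 25% in these data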;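 note: 0% = plate neutral control median and 100% = total signal loss; the record names both 10 and 1 µM as test concentration; the first replicate is given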
Target sequence (P42568 whole entry, looked up): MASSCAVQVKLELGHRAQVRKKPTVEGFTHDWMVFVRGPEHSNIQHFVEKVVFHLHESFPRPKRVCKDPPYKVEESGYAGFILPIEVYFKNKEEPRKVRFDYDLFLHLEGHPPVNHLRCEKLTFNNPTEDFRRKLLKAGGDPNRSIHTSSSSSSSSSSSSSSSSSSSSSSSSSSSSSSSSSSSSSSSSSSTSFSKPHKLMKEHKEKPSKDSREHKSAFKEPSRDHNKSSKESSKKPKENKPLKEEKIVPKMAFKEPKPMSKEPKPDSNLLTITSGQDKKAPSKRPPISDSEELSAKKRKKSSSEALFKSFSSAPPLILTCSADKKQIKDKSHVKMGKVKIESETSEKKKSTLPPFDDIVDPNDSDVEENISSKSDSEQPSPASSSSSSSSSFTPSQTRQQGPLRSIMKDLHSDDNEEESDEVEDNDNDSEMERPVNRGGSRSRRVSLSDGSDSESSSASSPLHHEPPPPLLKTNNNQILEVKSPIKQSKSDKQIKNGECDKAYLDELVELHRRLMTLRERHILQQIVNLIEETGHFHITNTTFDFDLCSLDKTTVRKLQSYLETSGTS
Ecoli rRNA inh = selective bacterial rRNA inhibition in E. coli; AID 720706; 350,000 compounds, 1.6% hits; E. coli WT GFP vs humanized-ribosome RFP mutants, fluorescence, 24 h; hits give low values; DMSO median 0, no signal -100; GFP signal change (wild-type ribosome), % (concentration not given with the values);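 active = significant combined selectivity score with lowered wild-type GFP, culture density cut under 30%, mutant RFP and density less affected; inactive = any of these conditions unmet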; note: one replicate is shown; some compounds called inactive have numbers as strong as hits
Ecoli rRNA inh OD600 = further read-out of Ecoli rRNA inh, marked with its call; OD600 change, %; measured here: OD600 growth;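 optical density of the mix in the first replicate; 0 = DMSO median and -100 = no signal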
Ecoli rRNA inh RFP = further read-out of Ecoli rRNA inh, marked with its call; RFP signal change, %; measured here: RFP humanized mutant strains;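 first replicate; 0 = DMSO median and -100 = no signal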
* marks the source's active call; other numbers are inactive results. This is a subset. The share of hits here may be higher or lower than overall.

What do the screens show for `C[C@H](CO)N1C[C@H](C)[C@H](CN(C)C(=O)Nc2ccc(F)cc2)Oc2c(NC(=O)Nc3ccccc3)cccc2C1=O`?
AF4-AF9 inh: 2.2; Ecoli rRNA inh: -22.9*; Ecoli rRNA inh OD600: -8.5*; Ecoli rRNA inh RFP: -2.1*

Results for O=C(Nc1ccccc1)N1CCCCN2[C@H](CO)[C@@H](c3ccc(C#CC4CC4)cc3)[C@@H]2C1 ?
AF4-AF9 inh: 1.9; Ecoli rRNA inh: -55.6; Ecoli rRNA inh OD600: -63.5; Ecoli rRNA inh RFP: -3.8

What do the screens show for `CCc1nc2ccc(C(=O)N3CCN(S(=O)(=O)CC)CC3)cn2c1N(C)C(=O)c1cccc(OC)c1`?
AF4-AF9 inh: 0.1; Ecoli rRNA inh: 2.0; Ecoli rRNA inh OD600: 6.5; Ecoli rRNA inh RFP: -4.2

What do the screens show for `C[C@H]1CN([C@@H](C)CO)C(=O)c2cc(C3=CCCC3)cnc2O[C@@H]1CN(C)C(=O)Nc1cccc(F)c1`?
AF4-AF9 inh: 0.2; Ecoli rRNA inh: -5.5; Ecoli rRNA inh OD600: -7.1; Ecoli rRNA inh RFP: -1.8

Results for C[C@H]1CN([C@@H](C)CO)S(=O)(=O)c2ccc(C#CC3(O)CCCC3)cc2O[C@H]1CN(C)C ?
AF4-AF9 inh: 0.2; Ecoli rRNA inh: 4.3; Ecoli rRNA inh OD600: 4.6; Ecoli rRNA inh RFP: -3.7

How did COc1ccc(NC(=O)N(C)C[C@H]2Oc3c(NC(=O)C4CCOCC4)cccc3C(=O)N([C@@H](C)CO)C[C@@H]2C)cc1 do in these assays?
AF4-AF9 inh: -13.5; Ecoli rRNA inh: 2.8; Ecoli rRNA inh OD600: 14.3; Ecoli rRNA inh RFP: -1.6

How did CC=Cc1ccc2n(c1=O)C[C@@H]1[C@@H](CO)[C@H](C(=O)NC3CCCC3)N(Cc3ccncc3)[C@H]21 (mixture of isomers) do in these assays?
AF4-AF9 inh: -1.3; Ecoli rRNA inh: 1.9; Ecoli rRNA inh OD600: 6.5; Ecoli rRNA inh RFP: -1.4

Results for CN(C)C(=O)C[C@@H]1CC[C@@H]2[C@H](COc3ccc(NC(=O)C4CCCC4)cc3C(=O)N2C)O1 ?
AF4-AF9 inh: -17.4; Ecoli rRNA inh: 3.8; Ecoli rRNA inh OD600: -5.4; Ecoli rRNA inh RFP: -0.1

How did C[C@@H]1CCCCO[C@@H](CN(C)Cc2ccc(Cl)c(Cl)c2)[C@@H](C)CN([C@H](C)CO)C(=O)c2cc(NC(=O)c3ccncc3)ccc2O1 do in these assays?
AF4-AF9 inh: 2.9; Ecoli rRNA inh: 1.8; Ecoli rRNA inh OD600: -7.7; Ecoli rRNA inh RFP: 0.4

How did CN1[C@H](C(=O)NCC2CC2)[C@@H](CO)[C@@H]2Cn3c(ccc(-c4ccc(F)cc4)c3=O)[C@@H]21 do in these assays?
AF4-AF9 inh: -5.4; Ecoli rRNA inh: -2.0; Ecoli rRNA inh OD600: -6.2; Ecoli rRNA inh RFP: 0.4

What do the screens show for `CCCN(C)C[C@H]1OCCCC[C@H](C)Oc2ccc(NS(=O)(=O)c3ccc(C)cc3)cc2C(=O)N([C@@H](C)CO)C[C@@H]1C`?
AF4-AF9 inh: 11.9; Ecoli rRNA inh: 3.6; Ecoli rRNA inh OD600: -7.6; Ecoli rRNA inh RFP: 1.8

How did Cc1ccccc1-c1cnc2c(c1)C(=O)N([C@@H](C)CO)C[C@@H](C)[C@@H](CN(C)C(=O)CC1CC1)O2 do in these assays?
AF4-AF9 inh: -2.6; Ecoli rRNA inh: 3.4; Ecoli rRNA inh OD600: 12.1; Ecoli rRNA inh RFP: 0.5

What do the screens show for `CC(=O)Nc1ccc(-c2ccnc3c2CC(C(=O)Nc2cccc(N(C)C)c2)O3)cc1` (configuration not stated)?
AF4-AF9 inh: 5.7; Ecoli rRNA inh: -3.4; Ecoli rRNA inh OD600: 4.5; Ecoli rRNA inh RFP: 12.8

How did COc1ccc(C(=O)Nc2ccc3c(c2)C(=O)N(C)[C@H]2CC[C@H](CC(=O)NCC4CC4)O[C@H]2CO3)cc1 do in these assays?
AF4-AF9 inh: -1.2; Ecoli rRNA inh: 0.0; Ecoli rRNA inh OD600: -5.6; Ecoli rRNA inh RFP: -0.8

Results for C[C@H](CO)N1C[C@H](C)[C@@H](CN(C)Cc2ccc(C(F)(F)F)cc2)Oc2c(NC(=O)Nc3ccc(F)cc3)cccc2C1=O ?
AF4-AF9 inh: 2.6; Ecoli rRNA inh: -0.7; Ecoli rRNA inh OD600: 9.5; Ecoli rRNA inh RFP: -2.1

How did CNC(=O)C[C@@H]1CC[C@@H]2[C@H](COc3ccc(NC(=O)c4ccc(OC)cc4)cc3C(=O)N2C)O1 do in these assays?
AF4-AF9 inh: 0.0; Ecoli rRNA inh: -1.5; Ecoli rRNA inh OD600: 3.5; Ecoli rRNA inh RFP: -2.5

Results for CN1C(=O)c2cc(NS(=O)(=O)c3cccc(F)c3)ccc2OC[C@H]2O[C@@H](CC(=O)N3CCc4ccccc4C3)CC[C@@H]21 ?
AF4-AF9 inh: -1.7; Ecoli rRNA inh: -6.9; Ecoli rRNA inh OD600: -22.5; Ecoli rRNA inh RFP: 0.4

Results for C[C@H]1CN([C@@H](C)CO)C(=O)Cc2cc(NC(=O)Nc3ccc(C(F)(F)F)cc3)ccc2O[C@@H]1CN(C)S(=O)(=O)c1cccs1 ?
AF4-AF9 inh: -0.3; Ecoli rRNA inh: -1.8; Ecoli rRNA inh OD600: 1.7; Ecoli rRNA inh RFP: 1.5

What do the screens show for `O=C(C[C@H]1CC[C@@H]2[C@H](COC[C@@H](O)CN2Cc2ccc(Cl)cc2)O1)Nc1nccs1`?
AF4-AF9 inh: 3.5; Ecoli rRNA inh: 1.8; Ecoli rRNA inh OD600: 2.7; Ecoli rRNA inh RFP: 0.6

Results for COc1ccc(Cn2cc(CN3[C@@H](c4ccccc4)COc4cc(Br)ccc4S3(=O)=O)nn2)cc1 ?
AF4-AF9 inh: -3.5; Ecoli rRNA inh: 1.8; Ecoli rRNA inh OD600: 10.0; Ecoli rRNA inh RFP: 2.8

Reprinted at random: three records from the list, in no set order.
How did CN1[C@H](C(=O)NCC2CC2)[C@@H](CO)[C@@H]2Cn3c(ccc(-c4ccc(F)cc4)c3=O)[C@@H]21 do in these assays?
AF4-AF9 inh: -5.4; Ecoli rRNA inh: -2.0; Ecoli rRNA inh OD600: -6.2; Ecoli rRNA inh RFP: 0.4

Results for COc1ccc(Cn2cc(CN3[C@@H](c4ccccc4)COc4cc(Br)ccc4S3(=O)=O)nn2)cc1 ?
AF4-AF9 inh: -3.5; Ecoli rRNA inh: 1.8; Ecoli rRNA inh OD600: 10.0; Ecoli rRNA inh RFP: 2.8

What do the screens show for `CCCN(C)C[C@H]1OCCCC[C@H](C)Oc2ccc(NS(=O)(=O)c3ccc(C)cc3)cc2C(=O)N([C@@H](C)CO)C[C@@H]1C`?
AF4-AF9 inh: 11.9; Ecoli rRNA inh: 3.6; Ecoli rRNA inh OD600: -7.6; Ecoli rRNA inh RFP: 1.8

(more compounds)
How did COc1ccccc1-c1ccc([C@@H]2[C@H](CO)N(CC3CC3)C23CN(S(C)(=O)=O)C3)cc1 do in these assays?
AF4-AF9 inh: 1.5; Ecoli rRNA inh: -10.3; Ecoli rRNA inh OD600: -4.2; Ecoli rRNA inh RFP: 1.2

How did COc1ccc2c3c([nH]c2c1)[C@H](CO)N(Cc1nccs1)CC31CN(Cc2nccs2)C1 do in these assays?
AF4-AF9 inh: 6.0; Ecoli rRNA inh: 1.2; Ecoli rRNA inh OD600: 15.2; Ecoli rRNA inh RFP: 0.9

What do the screens show for `CC1(C(=O)NS(=O)(=O)C2CC2)CCCN(C(=O)c2ccc3c(c2)OCO3)C1` (configuration not stated)?
AF4-AF9 inh: -0.4; Ecoli rRNA inh: 5.3; Ecoli rRNA inh OD600: 23.3; Ecoli rRNA inh RFP: 0.2

How did C[C@@H]1CN([C@@H](C)CO)C(=O)c2cc(NS(=O)(=O)c3ccccc3)ccc2O[C@@H]1CN(C)Cc1ccc(C(=O)Nc2ccccc2N)cc1 do in these assays?
AF4-AF9 inh: 0.7; Ecoli rRNA inh: -20.2*; Ecoli rRNA inh OD600: -5.3*; Ecoli rRNA inh RFP: 5.5*

Results for Cc1noc(C)c1NC(=O)Nc1ccc2c(c1)C(=O)N([C@H](C)CO)C[C@H](C)[C@@H](CN(C)Cc1ccncc1)OCCCC[C@H](C)O2 ?
AF4-AF9 inh: -3.6; Ecoli rRNA inh: 1.8; Ecoli rRNA inh OD600: 14.0; Ecoli rRNA inh RFP: 0.5

Results for COc1cccc(S(=O)(=O)Nc2ccc3c(c2)[C@@H]2C[C@@H](CC(=O)N[C@@H](C)c4ccccc4)O[C@@H](CO)[C@@H]2O3)c1 ?
AF4-AF9 inh: -1.4; Ecoli rRNA inh: -3.9; Ecoli rRNA inh OD600: -26.0; Ecoli rRNA inh RFP: 3.3

How did Cc1ccc(S(=O)(=O)N(C)C[C@@H]2OCCCC[C@H](C)Oc3ccc(NC(=O)Nc4ccc5c(c4)OCO5)cc3C(=O)N([C@H](C)CO)C[C@@H]2C)cc1 do in these assays?
AF4-AF9 inh: 4.5; Ecoli rRNA inh: -0.6; Ecoli rRNA inh OD600: 3.1; Ecoli rRNA inh RFP: -2.2

Results for COc1ccc2c3c([nH]c2c1)[C@H](CO)N(C(=O)CN(C)C)CC31CN(CC2CC2)C1 ?
AF4-AF9 inh: 13.3; Ecoli rRNA inh: 3.4; Ecoli rRNA inh OD600: 1.6; Ecoli rRNA inh RFP: -0.9

What do the screens show for `C[C@@H]1CN([C@@H](C)CO)S(=O)(=O)c2ccc(C#Cc3ccccn3)cc2O[C@H]1CN(C)Cc1ccccc1`?
AF4-AF9 inh: 1.6; Ecoli rRNA inh: -6.8; Ecoli rRNA inh OD600: -10.5; Ecoli rRNA inh RFP: 35.0

Results for Cc1cccc(S(=O)(=O)N2CCCCN3[C@@H](CO)[C@@H](c4ccc(C#CC5CC5)cc4)[C@@H]3C2)c1 ?
AF4-AF9 inh: 8.9; Ecoli rRNA inh: -56.0; Ecoli rRNA inh OD600: -66.8; Ecoli rRNA inh RFP: -11.8

Results for COc1ccc(NC(=O)Nc2ccc3c(c2)CC(=O)N([C@H](C)CO)C[C@@H](C)[C@@H](CN(C)S(=O)(=O)c2ccc(Cl)cc2)O3)cc1 ?
AF4-AF9 inh: 2.2; Ecoli rRNA inh: 1.2; Ecoli rRNA inh OD600: -3.4; Ecoli rRNA inh RFP: 3.0

How did C[C@H]1CCCCO[C@@H](CN(C)C(=O)Nc2ccccc2)[C@@H](C)CN([C@@H](C)CO)C(=O)c2cc(NC(=O)Nc3cccc4ccccc34)ccc2O1 do in these assays?
AF4-AF9 inh: 0.9; Ecoli rRNA inh: 7.8; Ecoli rRNA inh OD600: 11.4; Ecoli rRNA inh RFP: 4.2

Results for COc1ccc2c3c(n(C)c2c1)[C@@H](CO)N(Cc1cccc(F)c1)CC31CN(C(=O)Cc2ccccc2)C1 ?
AF4-AF9 inh: 3.9; Ecoli rRNA inh: -4.0; Ecoli rRNA inh OD600: -14.3; Ecoli rRNA inh RFP: 4.0

What do the screens show for `O=C(O)Cc1ccc(N2N=C(c3ccccc3)CC2=O)cc1`?
AF4-AF9 inh: -0.2; Ecoli rRNA inh: 19.8; Ecoli rRNA inh OD600: 24.2; Ecoli rRNA inh RFP: -2.0

What do the screens show for `COc1ccc(CNCCCn2cnc3c(OCc4ccccc4)ncnc32)cc1`?
AF4-AF9 inh: 1.4; Ecoli rRNA inh: 11.3; Ecoli rRNA inh OD600: 7.7; Ecoli rRNA inh RFP: 5.6

Results for C[C@H]1CN([C@@H](C)CO)C(=O)c2cc(NC(=O)Nc3ccc(C(F)(F)F)cc3)ccc2O[C@@H]1CN(C)Cc1ccc(Oc2ccccc2)cc1 ?
AF4-AF9 inh: -0.7; Ecoli rRNA inh: 2.8; Ecoli rRNA inh OD600: 4.0; Ecoli rRNA inh RFP: -0.2

How did COc1ccccc1NC(=O)N1C[C@@H]2[C@H](c3ccccc31)[C@H](CO)N2Cc1ccccc1F do in these assays?
AF4-AF9 inh: 2.0; Ecoli rRNA inh: -6.5; Ecoli rRNA inh OD600: -25.5; Ecoli rRNA inh RFP: 0.4

How did COc1ccc(S(=O)(=O)N(C)C[C@H]2OCCCC[C@H](C)Oc3ccc(NC(=O)Nc4c(C)noc4C)cc3C(=O)N([C@@H](C)CO)C[C@H]2C)cc1 do in these assays?
AF4-AF9 inh: 1.7; Ecoli rRNA inh: 0.6; Ecoli rRNA inh OD600: 8.0; Ecoli rRNA inh RFP: 4.8

How did Clc1cccc(-c2nc3c4ccccc4ccn3c2CC2CCCCC2)c1 do in these assays?
AF4-AF9 inh: -6.8; Ecoli rRNA inh: 22.5; Ecoli rRNA inh OD600: 1.9; Ecoli rRNA inh RFP: 7.8

What do the screens show for `CO[C@@H]1CN(C)C(=O)c2ccc(NC(C)=O)cc2OC[C@H](C)N(C(=O)c2ccc(F)cc2)C[C@@H]1C`?
AF4-AF9 inh: -1.9; Ecoli rRNA inh: 0.4; Ecoli rRNA inh OD600: 1.2; Ecoli rRNA inh RFP: -0.7

How did O=C(NCc1ccncn1)[C@H]1[C@H](CO)[C@H]2Cn3c(cccc3=O)[C@@H]1N2CC1CC1 do in these assays?
AF4-AF9 inh: -4.1; Ecoli rRNA inh: 1.7; Ecoli rRNA inh OD600: -3.9; Ecoli rRNA inh RFP: -1.6
